VDR inh: blocks the human vitamin D receptor; VDR-SRC2-3 peptide fluorescence polarization, 2 h; P11473; 400,000 compounds, 0.93% hits; Potency, µM, without a hit: max response, negative = inhibition, most hits filed as inhibitors; AID 504847; active = well fitted inhibition curve with a large enough effect; inconclusive = small, poorly fitted or top-dose-only effect, or another doubt; inactive = no such curve, though single readings can be large or run the other way; note: series mostly up to about 120 µM
Target sequence (P11473 whole entry, looked up): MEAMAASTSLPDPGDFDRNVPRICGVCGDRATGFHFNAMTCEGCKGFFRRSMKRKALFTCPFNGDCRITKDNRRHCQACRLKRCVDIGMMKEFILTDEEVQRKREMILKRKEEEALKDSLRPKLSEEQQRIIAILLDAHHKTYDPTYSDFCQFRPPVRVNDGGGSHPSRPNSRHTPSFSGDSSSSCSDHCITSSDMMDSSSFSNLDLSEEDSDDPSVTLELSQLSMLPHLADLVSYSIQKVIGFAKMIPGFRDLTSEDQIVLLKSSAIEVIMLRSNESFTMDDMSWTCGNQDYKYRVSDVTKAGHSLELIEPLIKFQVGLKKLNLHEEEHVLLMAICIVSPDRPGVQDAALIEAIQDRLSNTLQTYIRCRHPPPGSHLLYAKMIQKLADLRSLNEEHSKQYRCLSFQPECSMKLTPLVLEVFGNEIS
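Signal is fluorescence polarization, reporting how far test compounds block the interaction of VDR with the SRC2-3 coregulator peptide after a 2 h room-temperature incubation.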
An asterisk follows results filed as active; ? = inconclusive; [ ] = another dose, or the depositor's remark. % is set by controls: 0 for no effect and ±100 for the full control effect; potency is the fitted concentration of half-maximal effect.

SMILES | VDR inh
COc1ccc(-c2nn(-c3ccccc3C)cc2CNC(C)Cn2cncn2)cc1F (stereo unspecified) | -13%
NC(=O)C1CCN(C(=O)C2CC(=O)N(c3ccc4c(c3)OCCO4)C2)CC1 (stereo unspecified) | 10%
CC1N(O)C(c2ccc(Cl)cc2Cl)N(O)C1(C)C (stereo unspecified) | 15%
COC(=O)c1c(NC(=O)CSc2nnc(-c3ccco3)n2C)sc(C)c1C | ?
COc1ccc(C)cc1NC(=O)CN1C(=O)C(=O)N(C2CCCC2)C1=O | 14%
O=C(NCc1cccnc1)Nc1cccc(Cl)c1 | -6%
CC(C)=C1C2CCC1C1C(=O)N(c3nc(-c4ccccc4)c(C)s3)C(=O)C21 (stereo unspecified) | -14%
CN=CC1=C(O)c2ccccc2C1=O | 9%
Cc1cc(C)c(S(=O)(=O)Nc2cccc(-c3cn4ccccc4n3)c2)c(C)c1 | 10%
C=C(C)CN1C(=O)C2(OCCO2)c2ccccc21 | 9%
CCCCNC(=S)N1CCn2cccc2C1c1ccccc1 (stereo unspecified) | 23%
CC1CCCN(C(=O)c2ccncc2)C1 (stereo unspecified) | 3%
COc1ccc(S(=O)(=O)N2CCCCC2)cc1NC(=O)Cc1ccsc1 | 3%
Cc1cc(-c2csc(Nc3ccccn3)n2)ccc1F | -11%
Cc1nonc1C(=O)N/N=C/c1ccc(O)cc1O | 9%

Given as labelled records: part of the list above.
COc1ccc(-c2nn(-c3ccccc3C)cc2CNC(C)Cn2cncn2)cc1F (stereo unspecified)
  VDR inh = -13%

NC(=O)C1CCN(C(=O)C2CC(=O)N(c3ccc4c(c3)OCCO4)C2)CC1 (stereo unspecified)
  VDR inh = 10%

CC1N(O)C(c2ccc(Cl)cc2Cl)N(O)C1(C)C (stereo unspecified)
  VDR inh = 15%

New compounds follow
SMILES | VDR inh
CN1C(=O)/C(=C/c2ccc(C(=O)Nc3ccc(O)cc3C(=O)O)cc2)SC1=S | ?
Cn1nc(C(=O)NCc2ccc(F)cc2)c2c1-c1ccccc1S(=O)(=O)C2 | 14%
Cc1cc(NC(=O)CSc2nnc(C3COc4ccccc4O3)o2)no1 (stereo unspecified) | 2%
CCN(CC(=O)N1CCN(Cc2ccccc2)CC1)S(=O)(=O)c1ccc(F)cc1 | 0%
COC(=O)c1ccc(CN2CCCC(CO)(Cc3ccccc3F)C2)cc1 (stereo unspecified) | 7%
CCC(=O)NC(C)C(c1cccs1)N1CCN(c2ccccc2)CC1 (stereo unspecified) | -3%
C=CC[C@H](CC(=O)N(CCO)Cc1ccccc1)C(=O)N[C@H](COC(=O)[C@@H](CC=C)Cc1ccc(F)cc1)C(C)(C)C | -20%
CCSC1=NCCN1S(=O)(=O)c1ccc2ccccc2c1 | -10%
Cc1cccn2c(=O)c3cc(C(=O)NCC4CCCO4)c(=N)n(CC4CCCO4)c3nc12 (stereo unspecified) | -8%
Cc1ccc(S(=O)(=O)Nc2nc(N)n(-c3ccccc3)n2)cc1 | 7%
O=C(CSc1nnnn1-c1ccccc1)NC1CCCc2ccccc21 (stereo unspecified) | -2%
COc1ccc(N2CC(C(=O)NCCN3C(=O)S/C(=C\c4cccnc4)C3=O)CC2=O)c(OC)c1 (stereo unspecified) | 2%
O=c1[nH]cnc2cc(-c3ccccc3)sc12 | 13%
Cc1cccc(NC(=O)CCC2CCN(C(=O)c3ccc(C)s3)CC2)c1 | -2%
O=C(Cc1ccc(Cl)cc1)N1CCN(c2ccccc2)CC1 | 4%
COc1ccccc1-n1cnnc1SCC(=O)N1CCN(C(=O)c2ccco2)CC1 | -19%
CC(=O)NC12CC3CC(C1)CC(C(=O)Nc1nc4c(C)cccc4s1)(C3)C2 | -3%
Cc1ccc(N=C2S/C(=C\c3cn(CC(=O)O)c4ccccc34)C(=O)N2C)cc1 | ?
Cc1cc(C)cc(-n2c(SCC(=O)NCC3CCCO3)nc3c([nH]c4ccccc43)c2=O)c1 (stereo unspecified) | 2%
CCC1(CC)C(=O)NC(=O)NC1=NCCc1c[nH]c2ccccc12 | 0%
COc1cccc(C(=O)Nc2ncc3c(n2)CC(C)CC3=O)c1 (stereo unspecified) | 7%
CC(CC(=O)Nc1nnc(CC(C)(C)C)s1)c1ccccc1 (stereo unspecified) | -22%
COc1c(F)c(F)c(C(=O)Nc2ccccc2N2CCN(C(=O)C(C)C)CC2)c(F)c1F | 8%
CN(Cc1ccccc1)C(=O)CNC(=O)C12CC3CC(CC(C3)C1)C2 | 6%
CCCOc1cccc(C(=O)N(Cc2ccc(OC)c(OC)c2)C2CCS(=O)(=O)C2)c1 (stereo unspecified) | -10%
COc1ccc(C(=O)N2CCC3(CCN(Cc4ccccc4)CC3)CC2)cc1 | 0%
CSc1nc(C)cc(Nc2c(C)cc(C)cc2C)n1 | 1%
CC1=CC(=C(c2ccc(N)cc2)c2ccc(N)cc2)C=CC1=N | ?
COc1ccc(/C=N/S(=O)(=O)c2ccc(C)cc2)cc1 | -1%
c1ccc2[nH]c(CSc3nc4ccccc4s3)nc2c1 | 5%

Copied from the list:
For VDR inh, `COc1c(F)c(F)c(C(=O)Nc2ccccc2N2CCN(C(=O)C(C)C)CC2)c(F)c1F` has the entry 8%
For VDR inh, `CN(Cc1ccccc1)C(=O)CNC(=O)C12CC3CC(CC(C3)C1)C2` has the entry 6%

Later entries.
SMILES | VDR inh
O=C(C1=C(O)C(=O)N(Cc2ccccc2)C1c1cccnc1)c1ccco1 (stereo unspecified) | 14%
CCOC(=O)C1CCN(CC(=O)Nc2ccc(S(=O)(=O)N3CCC(C)CC3)cc2)CC1 | -12%
COc1cc(/C=C/C(=O)O)cc(S(=O)(=O)Nc2ccc3[nH]c(=O)[nH]c3c2)c1OC | -19%
COc1ccc2cnn(-c3ccc(OC(F)(F)F)cc3)c(=O)c2c1OC | -9%
CCOC(=O)N1CCc2c(sc(NCc3cccc(F)c3)c2C(=O)Nc2ccc(OC)cc2OC)C1 | -14%
Nc1ncnc2[nH]c(=S)[nH]c12 | 6%
CN(Cc1ccco1)c1cc(-c2cccc(C#N)c2)ncn1 | ?
Cn1cnc2c1c(=O)n(Cc1cccc(F)c1)c(=O)n2C | 7%
Cn1c(=O)c2cc3ccc(Cl)cc3nc2n(C)c1=O | 6%
COc1cc(/C=C2/SC(=O)N(Cc3ccccc3)C2=O)ccc1OCc1ccncc1 | -1%
CCN1C(=O)c2ccccc2S(=O)(=O)c2ccc(C(=O)NCc3ccc(OC)cc3)cc21 | 3%
COc1ccc(CN(C(=O)Nc2ccccc2)c2ccccn2)cc1OC | 0%
O=C(NCC1CCCO1)c1ccc([N+](=O)[O-])o1 (stereo unspecified) | -11%
O=C(COc1c(F)c(F)cc(F)c1F)NNC(=O)CC1CCS(=O)(=O)C1 (stereo unspecified) | 8%
c1ccc2[nH]c(SCCN3CCOCC3)nc2c1 | 10%
COc1ccc(CNC(=O)Cn2c(=O)n3nc(-c4cccc(F)c4)nc3c3ccccc32)cc1OC | 17%
O=C(Nc1ccc2c(c1)CCC2)c1ccc(F)cc1 | -5%
CON1C(=O)CN(C(C)=O)C1c1ccc(Cl)cc1Cl (stereo unspecified) | -1%
O=C(Nc1ccccc1N1CCCC1)c1ccc(N2CCCC2=O)cc1 | -8%
COc1ccc(-n2c(C)nc3c(cnn3-c3ccc(C)c(C)c3)c2=O)cc1 | -20%
O=c1nc(-c2ccccc2)c2cc(Br)ccc2[nH]1 | 12%
COC(=O)c1sccc1-n1cccc1C(=O)C(=O)N1CCCCC1 | -8%
CCc1ccc(CNC(=O)CCCn2c(=O)c3cccn3c3cccnc32)cc1 | 35%[activator]
c1ccc2[nH]c(CN3CCCCCC3)nc2c1 | 5%
CCOC(=O)c1cccc(N2C(=O)C3C(C2=O)C2C=CC3C23CC3)c1 (stereo unspecified) | 12%
CC(=O)Oc1c(Cl)cc(N(C(C)=O)S(=O)(=O)c2ccccc2)c2ccccc12 | -7%
COC(=O)c1ccc(OC(=O)CCS(=O)(=O)c2ccc(C)cc2)cc1 | -27%
CCOC(=O)c1ccc(NC(=O)Cn2cnc3sc(C(=O)OCC)c(C)c3c2=O)cc1 | 11%
O=S(=O)(Nc1cccc(CCc2ccccn2)c1)c1ccc(Cl)cc1 | 0%
CSc1nsc(SC)c1C(=O)Nc1ccc(C(C)(C)C)cc1 | 0%
CN(C)C(=O)CSc1nnc(CCCCCNC(=O)OC(C)(C)C)o1 | -4%
O=c1c(-c2ccc(F)cc2)nc2cnc(Nc3ccccc3)nc2n1C1CC1 | -1%
CCCCn1nnc(NC(=S)NC(=O)c2ccc(-c3cccc(Cl)c3Cl)o2)n1 | -25%
CCN1CCN(C(C(=O)NC2CCCC2)c2ccc(Cl)cc2)CC1 (stereo unspecified) | -27%
CC(=O)OCc1cc(=O)n2nc(C3CCCCC3)sc2n1 | 19%
COC(=O)[C@H](CCSC)NC(=O)NCCC1=CCCCC1 | 3%
Cc1ccc(NC(=O)C2=CC(c3ccc4c(c3)OCO4)=NS(=O)(=O)N2C)cc1 | 2%
Cc1cc(C)c(C)c(OCC(=O)NCC2CCCO2)c1 (stereo unspecified) | -5%
COCCN(C(=O)COC(=O)c1ccc(C=O)cc1)c1c(N)n(Cc2ccccc2)c(=O)[nH]c1=O | -11%
O=C(COc1ccccc1Cl)c1ccc2c(c1)CCCC2 | -15%
O=C(C(Cc1ccc(Cl)cc1)NS(=O)(=O)c1ccccc1)N1CC[C@@]2(O)CCCC[C@H]2C1 (stereo partly specified) | 19%
CC(C)n1cnnc1SCC(=O)Nc1cccc(S(=O)(=O)N(C)c2ccccc2)c1 | 13%
O=C(CSc1ccc2nnc(-c3ccncc3)n2n1)NCC1CCCO1 (stereo unspecified) | 11%
Cc1c(C(=O)NC2CCCc3ccccc32)cccc1[N+](=O)[O-] (stereo unspecified) | -10%
Cc1cc(OCC(=O)N(Cc2ccccc2)C2CCS(=O)(=O)C2)ccc1Cl (stereo unspecified) | 4%
O=C(NC(=O)c1cccc(OC(F)(F)C(F)F)c1)OC1CCS(=O)(=O)C1 (stereo unspecified) | -1%
O=c1[nH]c(=O)c2nc3c4ccccc4c4ccccc4c3nc2[nH]1 | -24%
Cc1ccc(C(=O)NCC2(c3ccccc3)CCCC2)cc1 | 20%
Cc1cccc(-c2ccc3c(c2)C2CC3CCN2C(=O)OCc2ccccc2)c1 (stereo unspecified) | 6%
O=C(C1CCCN1S(=O)(=O)c1ccc(Cl)cc1)N1CCCCC1 (stereo unspecified) | 3%
CCC(=O)N(Cc1cc2cc(OC)ccc2[nH]c1=O)c1cccc(C)c1 | 0%
CCOc1ccc(-n2c(C)cc(C(=O)CCl)c2C)cc1 | 50µM*
COc1ccc(NS(=O)(=O)c2cccc(C(=O)NNC(=O)c3ccc(NC(C)=O)cc3)c2)cc1 | 10%
O=C(Nc1cccc2ccccc12)c1nn(C23CC4CC(CC(C4)C2)C3)cc1[N+](=O)[O-] | 19%
COc1ccc(/C=C/C(=O)NCCOc2ccccc2OC)cc1 | 0%
CCOC(=O)c1cc(-c2ccc(Cl)s2)[nH]n1 | -3%
COc1ccc(-n2nc(C(=O)N3CCN(c4cccc(C(F)(F)F)c4)CC3)c3c4ccccc4n(C)c3c2=O)cc1Cl | 6%
O=C(CSc1ccc(-c2cccnc2)nn1)Nc1ccc(F)cc1 | 0%
Cc1ccc(C(=O)N2CCN=C2SCc2ccc([N+](=O)[O-])cc2)cc1C | -17%
O=C(c1ccc(Cl)c(S(=O)(=O)Nc2ccccc2C(=O)N2CCc3ccccc3C2)c1)N1CCc2ccccc2C1 | -6%

Next section; it opens with the 6 that closed the last part.
SMILES | VDR inh
COc1ccc(/C=C/C(=O)NCCOc2ccccc2OC)cc1 | 0%
CCOC(=O)c1cc(-c2ccc(Cl)s2)[nH]n1 | -3%
COc1ccc(-n2nc(C(=O)N3CCN(c4cccc(C(F)(F)F)c4)CC3)c3c4ccccc4n(C)c3c2=O)cc1Cl | 6%
O=C(CSc1ccc(-c2cccnc2)nn1)Nc1ccc(F)cc1 | 0%
Cc1ccc(C(=O)N2CCN=C2SCc2ccc([N+](=O)[O-])cc2)cc1C | -17%
O=C(c1ccc(Cl)c(S(=O)(=O)Nc2ccccc2C(=O)N2CCc3ccccc3C2)c1)N1CCc2ccccc2C1 | -6%
CCN1CCN(c2ccc(S(=O)(=O)N3CCCCC3)cc2N)CC1 | 22%
COc1cc2c(cc1/C=C/C(=O)O)OC(C)C2 (stereo unspecified) | 13%
CC(=O)Nc1ccc(S(=O)(=O)Nc2nc3ccccc3nc2Nc2ccc(C(=O)O)c(O)c2)cc1 | -13%
O=[N+]([O-])c1ccc(NCc2ccc3c(c2)OCO3)cc1 | -11%
Cc1nc2ccccc2c(=O)n1NC(=O)c1ccc(C(C)(C)C)cc1 | -7%
Brc1ccc(-c2nnc(-c3ccccc3)o2)o1 | -15%
CCNc1nc2cccnc2s1 | -1%
O=C(CCC1CCCCC1)Nc1ccccc1-c1ccccc1 | 10%
Cc1cc(C)cc(NC(=O)Cn2cc(C(=O)c3cccs3)c3ccccc32)c1 | -5%
O=C(NCC(c1cccnc1)N1CCc2ccccc2C1)C(=O)Nc1ccccc1 (stereo unspecified) | 11%
CN1CCN(c2nc3c(c(=O)n(C)c(=O)n3C)n2CC(N)=O)CC1 | 3%
Cc1c(C(=O)N2CCC(C)CC2)cccc1[N+](=O)[O-] | -3%
Cc1ccc(-c2cc(C(=O)NN)n[nH]2)o1 | 8%
Cc1c(S(=O)(=O)Nc2ccc(Oc3ccccc3)cc2)c(=O)n(C)c(=O)n1C | -19%
COc1ccc(CCNc2nc(-c3ccc(F)cc3)cc(C(F)(F)F)n2)cc1OC | -30%
O=C(COC(=O)c1cc(=O)[nH]c2ccccc12)NCc1ccc(F)cc1 | 2%
COc1ccccc1NC(=O)CN1C(=O)NC(C)(C)C1=O | -19%
Cc1cccc(CN2CCN(CC(=O)NCc3ccc(F)cc3)C2=O)c1 | 6%
CC(=O)Nc1ccc(C(=O)OCc2ccc(Cl)c(Cl)c2)cc1 | -4%

Screening data (PubChem)

This is a subset. The share of hits here may be higher or lower than overall.
